# NS1 function inh = qHTS Assay for Inhibitors of Influenza NS1 Protein Function. Potency, µM (doses to about 46.1 µM), without a hit: top-dose activity, positive = more growth. S. cerevisiae slowed by influenza A NS1, growth recovery by OD600. actives 0.4% (n = 270,000); note: actives are rising curves; nearly all actives have a fitted effect of over 50% in size
#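 A cell-based growth assay was used: compounds that relieve NS1-induced slow growth of budding yeast raise OD600. Assay medium was yeast nitrogen base with ammonium sulphate and -URA supplement, pH 6.0, with 2% galactose.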
# RE007 growth inh = qHTS Assay for Inhibitors of the HIV-1 protein Vpr. S. pombe RE007 Vpr strain, BacTiter-Glo ATP luminescence, 24 h; control for the full effect not named in the record. Potency, µM (top dose mostly 92.2 µM), for inactives: at the top dose activity change, negative = less growth. actives 0.21% (n = 360,000); active = well fitted falling curve with a large enough effect; inconclusive = small, poorly fitted or top-dose-only effect; inactive = no such curve, though single readings can be large or run the other way;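 note: % is set by controls: 0 for no effect and ±100 for the full control effect; nearly all actives have a fitted effect of over 50% in size; the assay follows cell death caused by Vpr and the record does not say whether a fall means rescue or toxicity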
#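 Fission yeast strain RE007, carrying one chromosomally integrated HIV-1 vpr copy, was seeded at OD 0.01 in PMG+AL medium with 23 nL pinned compound. After 24 h at 30 °C and 99% humidity, viability was read by BacTiter-Glo luminescence.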
# Cruzain noTriton = qHTS Assay for Promiscuous and Specific Inhibitors of Cruzain (without detergent); Cruzipain (Trypanosoma cruzi), P25779; purified cruzain, Z-FR-AMC fluorescence, no detergent; Potency, µM, inactives show max response, negative = inhibition, actives largely listed as inhibitors; actives 2.3% (n = 200,000); active = well fitted curve in the direction sought with a large enough effect; inconclusive = small, poorly fitted or top-dose-only effect, or another doubt; inactive = no such curve, though single readings can be large; an effect the other way counts as inactive or inconclusive;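 note: plate controls were enzyme without inhibitor for no effect and buffer without enzyme for full effect; nearly all actives have a fitted effect of over 40% in size; top concentration of the series not given in the record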
# Target sequence (P25779 123-467 limits assumed): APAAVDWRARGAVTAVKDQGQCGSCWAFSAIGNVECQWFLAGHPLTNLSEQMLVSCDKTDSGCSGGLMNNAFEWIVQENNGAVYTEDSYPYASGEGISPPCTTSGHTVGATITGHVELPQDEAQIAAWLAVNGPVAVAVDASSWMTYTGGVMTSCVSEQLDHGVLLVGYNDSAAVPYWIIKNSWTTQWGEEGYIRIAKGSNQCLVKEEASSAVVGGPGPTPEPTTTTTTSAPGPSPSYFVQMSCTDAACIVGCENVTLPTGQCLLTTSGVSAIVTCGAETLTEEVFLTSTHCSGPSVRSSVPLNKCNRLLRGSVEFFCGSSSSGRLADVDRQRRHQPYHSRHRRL
#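 Purified cruzain at 1.5 nM, pre-incubated 15 min with compound at room temperature in 100 mM sodium acetate pH 5.5, 5 mM DTT, 0.00005% Triton X-100. Reaction started with 2 uM Z-FR-AMC; AMC fluorescence increase over 60 s gives rate.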
# Marburg entry inh = qHTS for inhibitors of binding or entry into cells for Marburg Virus; Marburg virus pseudotyped entry inhibition, cell reporter; control for the full effect not named in the record; about a third of the inactives were read at about 46 µM; AID 540276, 2011; actives 1.8% (n = 300,000); Potency, µM (series often up to 37.8 µM), without a hit: top-dose activity change, negative = inhibition, usual class: inhibitors; active = well fitted inhibition curve with a large enough effect; inconclusive = small, poorly fitted or top-dose-only effect, or effect the other way; inactive = flat fitted curve, though single readings scatter; tested in HEK293 cells; about a fifth of its hits are not listed in these tables; note: % is set by controls: 0 for no effect and ±100 for the full control effect; luciferase read-out
# Cruzain Triton = qHTS Assay for Promiscuous and Specific Inhibitors of Cruzain (with detergent) | Potency, µM, inactives show max response, negative = inhibition, hits mostly inhibitors | Cruzipain (Trypanosoma cruzi), P25779 | actives 0.43% (n = 200,000) | AID 1478, 2009 | purified cruzain, Z-FR-AMC fluorescence, 0.01% Triton; active = well fitted curve in the direction sought with a large enough effect; inconclusive = small, poorly fitted or top-dose-only effect, or another doubt; inactive = no such curve, though single readings can be large; an effect the other way counts as inactive or inconclusive;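 note: plate controls were neutral wells for no effect and buffer without enzyme for full effect; nearly all actives have a fitted effect of over 40% in size; top concentration of the series not given in the record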
#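 Z-FR-AMC hydrolysis (2 uM substrate) by cruzain (1.5 nM) monitored kinetically at ex 360/em 450 nm after 15 min room-temperature compound exposure; 0.01% Triton X-100, pH 5.5, 5 mM DTT.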
# LASV entry inh = qHTS for Inhibitors of binding or entry into cells for Lassa Virus | actives 1.2% (n = 300,000) | Potency, µM (titrated, usually from 37.9 µM), inactives show at the highest dose activity change, negative = inhibition, most hits filed as inhibitors | Lassa virus pseudotype entry inhibition, cell reporter; control for the full effect not named in the record; active means well fitted inhibition curve with a large enough effect; inconclusive means small, poorly fitted or top-dose-only effect, or effect the other way; inactive means flat fitted curve, though single readings scatter; tested in HEK293 cells; note: % is set by controls: 0 for no effect and ±100 for the full control effect; nearly all actives have a fitted effect of over 50% in size; luciferase read-out
# StopGo reporter = High Throughput Screening for Foot and Mouth Disease Virus Antivirals; human cells with a luciferase reporter of 2A StopGo recoding; control for the full effect not named in the record; Potency, µM (series often up to 57.9 µM), for the others: top-dose signal change, negative = less light; actives 1.2% (n = 410,000); active = well fitted falling curve with a large enough effect; inconclusive = small, poorly fitted or top-dose-only effect; inactive = no such curve, though single readings can be large or run the other way; tested in HEK293T cells; note: % is set by controls: 0 for no effect and ±100 for the full control effect; nearly all actives have a fitted effect of over 45% in size; luciferase light after 4 h
# SARS PLP yeast = qHTS of Yeast-based Assay for SARS-CoV PLP. Potency, µM (highest dose often 32.9 µM), inactives show top-dose activity, positive = growth rescue. actives 0.19% (n = 330,000). S. cerevisiae expressing SARS-CoV PLpro, growth rescue; control for the full effect not named in the record; note: 0% is about no effect; nearly all actives have a fitted effect of over 55% in size; growth read by luminescence after 48 h
# Active calls of the source: *; ? = inconclusive; / = no result given; & = joins results of further samples; [ ] = dose if it differs, or a comment. Unless noted, calls come from the whole dose curve; as a rule, active means well fitted rising curve with a large enough effect; inconclusive means small, poorly fitted or top-dose-only effect; inactive means no such curve, though single readings can be large or run the other way. Potency is the fitted concentration of half-maximal effect. Outcome played no part in choosing rows; any-hit rate near 4.6%.
SMILES | NS1 function inh | RE007 growth inh | Cruzain noTriton | Marburg entry inh | Cruzain Triton | LASV entry inh | StopGo reporter | SARS PLP yeast
O=C(Cn1nnc(-c2ccc(N3CCOCC3)cc2)n1)N1CCOCC1 | 0.6% | -5.2% | / | / | / | / | 34.3%[activator] | -0.2%
Cn1ncc(Br)c1C(=O)N1CCCCCC1 | -3.4% | 3.8% | / | ? | / | 1.6% | 8.4% | -0.1%
COc1cc(C)c(NC(=S)Nc2cccc(Cl)c2C)cc1OC | 14.4% | 6.1% | -0.9% | -1.1% | -4.3% | 15.1% | -17.4% | -4.3%
CCCN1Cc2cccc(C(=O)Nc3ccccc3C(=O)OC)c2C1=O | / | / | 8.2% | 2.6%[46.1 µM] | -2.7% | 2.8%[46.1 µM] | -20.0% | /
CCCN1CCN(S(=O)(=O)c2ccc3c(c2)NC(=O)C(C)C(=O)N3)CC1 (stereo not drawn) | -2.2% | -13.0% | / | / | / | / | 0.0% | -2.4%
COc1ccc(S(=O)(=O)Nc2ccc(C)c(S(=O)(=O)N3CCOCC3)c2)cc1[N+](=O)[O-] | / | -3.7% | / | 20.7% | / | 6.9% | 32.7%[activator] | 1.7%
Cc1ccc(S(=O)(=O)N2C(=O)CCC2C(=O)Nn2cnnc2)cc1 (stereo not drawn) | 6.8% | 1.4% | -0.3% | 15.5% | 0.8% | 23.9%[14.3 µM] | -17.5% | 2.5%
COc1ccc(-c2csc3ncnc(Nc4ccccc4)c23)cc1 | / | / | 0.4% | / | -1.0% | 24.8%[46.1 µM] | ? | /
COc1ccc(N2C(=O)C3C(c4ccc(OC)cc4O)NC(Cc4ccccc4)(C(=O)O)C3C2=O)cc1 (stereo not drawn) | / | 1.9% | / | 2.7%[46.1 µM] | / | -7.8%[46.1 µM] | -2.7% | 0.7%
CC(Oc1ccccc1)C(=O)NC1CC(C)(C)NC(C)(C)C1 (stereo not drawn) | ? | 11.3% | ? | -1.8% | 10.2% | 3.8% | 3.2% | 2.3%
CN(CCO)c1cc(NCCCN2CCC(Cc3ccccc3)CC2)c2nonc2c1[N+](=O)[O-] | / | -1.1% | / | ? | / | ? | -23.2% | -4.9%
COc1ccc(NC(=O)C2CCC(CNC(=O)[C@@H]3Cc4ccccc4CN3)CC2)cc1 (stereo partly drawn) | -4.0% | -1.9% | / | / | / | / | -16.1% | 1.4%
O=C(c1ccc(-c2ccc([N+](=O)[O-])cc2)o1)N1CCCC(C(F)(F)F)C1 (stereo not drawn) | / | -23.0% | / | -17.5% | / | -1.9% | 25.1% | 8.1%
Cc1cccc(N(C)c2nc3ccc(C)cc3n3nnnc23)c1 | / | / | ? | / | -4.6% | 0.7%[46.1 µM] | -17.7% | /
CCC(O)c1nc2ccccc2n1CCc1ccccc1 (stereo not drawn) | -3.8% | 3.3% | / | -0.6%[46.1 µM] | / | -10.9%[46.1 µM] | -24.0% | 0.5%
CCNS(=O)(=O)c1ccc(CCC(=O)NCc2ccncc2)cc1 | -1.4% | -0.9% | / | 13.9% | / | 1.0% | -7.9% | 4.3%
O=c1oc(-c2cccs2)nc2sc3c(c12)CCC3 | -4.2% | -7.9% | 12.6µM* | 11.4% | 0.9% | -15.3% | / | -1.8%
CC(=O)Oc1ccc(/C=N/NS(=O)(=O)c2ccccc2)cc1 | -0.8% | -24.0% | / | ? | / | -9.4%[46.1 µM] | 31.3%[activator] | -4.3%
CN1CC=C2C(C#N)=C(N)C(C#N)(C#N)C(CCc3ccccc3)C2C1 (stereo not drawn) | 3.8% | 6.4% | -1.7% | ? | -12.2% | -6.9% | -6.0% | -7.2%
CC1CN(CC(O)COC(c2ccccc2)c2ccccc2)CC(C)O1 (stereo not drawn) | -1.1% | -15.8% | 16.5% | -16.0% | 0.5% | -11.5% | -12.2% | 2.0%
O=C(CNC(=O)c1ccccn1)N=Nc1c(O)[nH]c2ccccc12 | -3.2% | -3.7% | / | ? | / | ? | 18.6% | -4.4%
Cc1cc(Cl)ccc1NC(=O)CCS(=O)(=O)c1cc2c(cc1C)NC(=O)CO2 | / | / | -2.6% | / | -1.4% | 18.2%[46.1 µM] | 3.2% | /
COCCn1c(SCC(=O)NC(=O)NC(C)(C)C)nc2ccccc21 | -3.3% | 5.0% | -8.0% | ? | -2.6% | 15.3% | -4.8% | 4.9%
COC(=O)[C@H](Cc1ccccc1)N1C/C=C\COc2c(Cl)cc(Cl)cc2S1(=O)=O | / | -3.9% | / | ? | / | / | 0.0% | -31.1%
CN(C)CCn1cnc2c(c1=N)C(c1ccccc1)c1ccc3ccccc3c1O2 (stereo not drawn) | 2.5% | 5.8% | / | / | / | / | 0.0% | 1.4%

# A second format for some results above.
# Below each compound – NS1 function inh	RE007 growth inh	Cruzain noTriton	Marburg entry inh	Cruzain Triton	LASV entry inh	StopGo reporter	SARS PLP yeast
- O=C(c1ccc(-c2ccc([N+](=O)[O-])cc2)o1)N1CCCC(C(F)(F)F)C1 (stereo not drawn)
    /	-23.0%	/	-17.5%	/	-1.9%	25.1%	8.1%
- Cc1cccc(N(C)c2nc3ccc(C)cc3n3nnnc23)c1
    /	/	?	/	-4.6%	0.7%[46.1 µM]	-17.7%	/
- CCC(O)c1nc2ccccc2n1CCc1ccccc1 (stereo not drawn)
    -3.8%	3.3%	/	-0.6%[46.1 µM]	/	-10.9%[46.1 µM]	-24.0%	0.5%
- CCNS(=O)(=O)c1ccc(CCC(=O)NCc2ccncc2)cc1
    -1.4%	-0.9%	/	13.9%	/	1.0%	-7.9%	4.3%

# Going on with the list:
SMILES | NS1 function inh | RE007 growth inh | Cruzain noTriton | Marburg entry inh | Cruzain Triton | LASV entry inh | StopGo reporter | SARS PLP yeast
O=S(=O)(c1ccc(Cl)cc1)N1CCN(C(=S)NCC2CCCO2)CC1 (stereo not drawn) | 1.0% | 7.0% | / | -14.4% | / | 11.1% | 5.9% | -0.9%
O=C(COC(=O)CC1CC2CCC1C2)NCc1ccc(Cl)cc1 (stereo not drawn) | / | 7.1% | / | ? | / | -5.9%[46.1 µM] | -12.7% | -6.5%
CCn1c(C(C#N)/C(=N\S(=O)(=O)c2cccs2)c2ccccc2)nc2ccccc21 (stereo not drawn) | -4.3% | -6.7% | 10.2% | 11.6% | -8.8% | -0.2% | / | -1.0%
Cc1cccc(NC(=O)c2c(O)c3ccccc3n(C)c2=O)c1 | 11.6% | 8.5% | / | / | / | / | 0.0% | -0.8%
COc1cc([N+](=O)[O-])cc(/C=N/NC(=O)Cn2nc(C)cc2C)c1O | -13.8% | 1.1% | / | / | / | / | -7.0% | 8.6%
Cc1ccc(C)c2sc(NC(=O)c3ccc(N4CCCCC4)c([N+](=O)[O-])c3)nc12 | 6.0% | -2.5% | 7.94µM* | -42.1% | 3.6% | 8.1% | -15.6% | -3.2%
CN(CC(=O)NCc1ccco1)CC(=O)Nc1c(Cl)cccc1Cl | / | 1.4% | / | 10.9% | / | -2.0% | -11.1% | -2.0%
Cc1cccc(C(CC(=O)NCc2ccco2)c2ccccc2)c1O (stereo not drawn) | 6.8% | -12.8% | / | -0.6% | / | ? | 0.8% | 2.4%
O=C(CSc1nnc(NC(=O)c2ccc(F)cc2F)s1)NC1CC1 | 2.3% | -7.0% | / | 0.3%[46.1 µM] | / | -29.8% | 19.8% | 10.2%
O=C(OCC(=O)N1CCCCCC1)c1ccc(Cl)c(S(=O)(=O)N2CCCC2)c1 | / | -8.2% | / | ? | / | -9.3% | -9.1% | 0.5%
Cc1nnsc1S(=O)(=O)Cc1ccccc1Cl | -1.0% | -11.4% | -1.4% | 22.4% | 2.5% | 5.9% | 0.3% | -2.6%
CC1(C)CC(=O)C=C(NCc2cccnc2)C1 | 6.9% | 4.6% | -12.2% | 2.6% | -0.4% | -12.3% | 4.8% | -3.2%
O=C(CSc1cn[nH]n1)Nc1cccc(C(=O)O)c1 | 14.3% | 7.8% | / | 10.4%[46.1 µM] | / | -10.7% | 6.6% | 0.6%
O=C(O)c1ccc2c(c1)C(c1ccccc1)OC2=O (stereo not drawn) | -4.3% | 2.4% | -3.5% | 3.6% | 3.8% | -5.4% | 8.6% | -0.1%
O=c1[nH]c(CSc2nnnn2-c2ccccc2)nc2ccccc12 | 5.0% | -8.3% | / | -1.0%[46.1 µM] | / | -0.9% | -14.3% | -0.9%
Cc1ccn2cc(-c3ccc(C)c(NS(=O)(=O)c4ccc(Cl)cc4)c3)nc2c1 | / | / | ? | -10.8%[46.1 µM] | -7.7% | ? | -12.1% | /
O=S(=O)(Nc1ccc(S(=O)(=O)N2CCCCCC2)cc1)c1cccs1 | 0.4% | 7.3% | -1.1% | -9.9% | -5.1% | 0.3% | / | 10.8%
CC1CCCCC12NC(=O)N(CC(=O)OCc1c(F)cccc1Cl)C2=O (stereo not drawn) | / | 3.0% | / | -0.6% | / | -10.8% | -25.5% | -2.0%
CCN(CC)C(=O)c1sc2nc(-c3ccc(OC)cc3)cn2c1C | -67.2% | -0.9% | 8.7% | 4.8% | 0.3% | 4.0% | 16.6% | -0.9%
COCCNC(=O)Cn1nc(C)c2ccccc2c1=O | 4.7% | -3.5% | 7.6% | 19.3%[46.1 µM] | -1.1% | -5.2% | -13.7% | 7.1%
c1ccc(-c2c[nH]c(-c3ccccc3)c2)cc1 | / | -13.5% | / | 10.4% | / | ? | 30.1%[activator] | /
COc1ccc(CCNC(=O)CC2COc3ccccc3O2)cc1OC (stereo not drawn) | -6.3% | -1.2% | 9.3% | -23.3% | 2.2% | 22.0% | 1.7% | -0.2%
COCCCNC(=O)CSC1=Nc2ccccc2C2=NC(CC(=O)NCc3ccccc3)C(=O)N12 (stereo not drawn) | 3.4% | 13.6% | 0.0% | 16.9%&16.9% | -15.4% | -0.2% | 56.7%[activator] | -3.9%
